PINK1 expr mod = A Quantitative High throughput Screen to Identify Chemical Modulators of PINK1 Expression. PINK1 immunofluorescence, high-content cytometry, 24 h. Potency, µM (doses to about 76.6 µM), for the others: at the highest dose activation (PINK1 increase), hits mostly activators. 410,000 compounds, 0.2% hits. AID 624263, 2012; active = well fitted activation curve with a large enough effect; inconclusive = small, poorly fitted or top-dose-only effect; inactive = flat fitted curve, though single readings scatter; cell line not stated here;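 also: % of control where 0% means no effect; nearly all actives have a fitted effect of over 65% in size; a mitochondrial uncoupler was the plate control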
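Cells are seeded, rested 12 hours, then given compound at five concentrations or DMSO for 24 hours. After fixation, blocking and antibody staining, PINK1 amount and mitochondrial localization are scored; CCCP serves as control.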
Numbers without * were called inactive; ? = inconclusive; & = joins results of further samples. Potency is read from the fitted curve at half-maximal effect. These rows are one share of the data, so the mix of outcomes need not match the whole.

structure	PINK1 expr mod
COCCCNC(=O)Nc1cc(C(=O)NCc2ccc(OC)cc2)ccc1N1CCCC1	-1.9%
Cc1cc(NC(=O)CN2CCC(O)CC2)nc2c1c(=O)oc1ccccc12	1.8%
CCc1ccc(NC(=O)c2cnc3sc(N4CCCC4)nn3c2=O)cc1	0.6%
CCn1c(-c2ccccc2F)nc2cc(NC(C)=O)cc(C(=O)NC(c3ccccn3)C(F)(F)F)c21 (stereo unspecified)	0.5%
Nc1nc(NCc2ccc(Cl)cc2Cl)c2[nH]cnc2n1	-0.4%&0.5%
COc1cccc(C(=O)NCC(c2ccc3c(c2)OCO3)N2CCOCC2)c1 (stereo unspecified)	0.6%
COc1cccc(CNC(=O)C2CCN(C(=O)c3cnn(-c4ccccc4)c3-n3cccc3)CC2)c1	1.0%
CCCN(CCC)C(=O)Cn1c(=O)n(-c2ccc(CC)cc2)c(=O)c2ccc(C(=O)NCCc3ccccc3)cc21	?
CC(=O)c1cccc(NC(=O)C2CCN(c3nnc(-n4cccc4)s3)CC2)c1	-4.3%
CC(C)NC(=O)c1ccc(Cn2c(SCC(N)=O)nc3ccccc3c2=O)cc1	-4.0%
COc1ccc(CNC(=O)Cn2c(=O)cc(C)c3c(C)nn(-c4cccc(Cl)c4C)c32)cc1	-0.1%
COc1ccc(NC(=O)CSc2oc(-c3ccco3)nc2S(=O)(=O)c2ccc(C)cc2)c(OC)c1	-0.8%
CCOC(=O)c1ccc(NC2=CC(c3ccc(Br)cc3)N(c3ccc(C(=O)OCC)cc3)C2=O)cc1 (stereo unspecified)	-0.1%
CCOc1cccc(C(=O)N2CCC(c3nc4ccccc4s3)CC2)c1	1.3%
COC(=O)c1cc(NC2(c3ccccc3)C(=O)c3ccccc3C2=O)cc(C(=O)OC)c1	-0.2%
CC(C)(C)OC(=O)N1CCC(c2c(C(=O)NC3CCCCC3)cnn2-c2ccc(F)cc2F)CC1	-1.5%
CC1Cc2cc(S(=O)(=O)CCC(=O)Nc3ccc(F)cc3Cl)ccc2N1C(=O)C1CC1 (stereo unspecified)	2.4%
Cc1cccc(OCCCCn2nnc3sc4c(c3c2=O)CCC(C)C4)c1 (stereo unspecified)	5.4%
COc1ccc(N(C(=O)/C=C\C(=O)Nc2ccc(Cl)cc2)C(C(=O)NCc2ccco2)c2ccc(C)cc2)cc1 (stereo unspecified)	0.5%
Cc1ccc(CNC(=O)CN2CCN(Cc3ccc(F)cc3)C2=O)cc1	-0.1%
COc1cccc(CNC(=O)C2CCN(c3nnc(-n4c(C)ccc4C)s3)CC2)c1OC	2.8%
C=CCc1cccc2cc(C(=O)Nc3cccc(Cl)c3)c(=O)oc12	0.2%
COc1ccc(-n2nc(C(=O)N3CCN(c4cccc(C)c4C)CC3)c3c4ccccc4n(C)c3c2=O)cc1	2.6%
CCOC(=O)c1ccc(N2C(=O)c3n[nH]c(-c4cccs4)c3C2c2ccc(C(C)C)cc2)cc1 (stereo unspecified)	14%
COc1ccc(-c2nc3scc(CCNS(=O)(=O)c4c(C)noc4C)n3n2)cc1	0.5%
CCOc1ccc(NS(=O)(=O)c2ccc3nc(-c4ccccc4)[nH]c3c2)cc1	2.1%
O=C(CSc1oc(-c2ccccc2)nc1S(=O)(=O)c1ccc(Cl)cc1)NC1CCCCC1	-0.7%
CC(C)(C)c1ccc(C(=O)Nc2cc(-c3nc4ccccc4o3)ccc2Cl)cc1	4.9%
Nc1c(-c2nc(-c3ccc4c(c3)OCO4)cs2)c2ccccn2c1C(=O)c1ccccc1	1.9%
COc1cc(Br)ccc1C1C(C(=O)Nc2ccc(C)cc2C)=C(C)Nc2nnnn21 (stereo unspecified)	7.8%
CCOC(=O)c1[nH]c(C)c(CCC(=O)N2CCN(c3ccccc3)CC2)c1C	1.0%
O=C(Nc1ccc(F)c(Cl)c1)c1cc(S(=O)(=O)N2CCCc3ccccc32)ccc1F	0.1%
O=C(CC1(O)C(=O)N(CCc2ccccc2)c2ccc(Br)cc21)c1ccccc1 (stereo unspecified)	2.8%
O=C(Cn1c(=O)n(-c2ccc(Cl)cc2)c(=O)c2c3c(sc21)CCC3)c1ccc(F)cc1	5.6%
CCN(C(=O)C1CCC(CNS(=O)(=O)c2cccc3nsnc23)CC1)c1cccc(C)c1 (stereo unspecified)	0.8%
COc1ccc(N2CC(NC(=O)c3ccc(S(=O)(=O)N4CCCCC4)cc3)CC2=O)cc1 (stereo unspecified)	0.0%
CC(=O)c1ccc(N2CCN(c3ncnc4c3c(-c3ccccc3)cn4-c3ccc(C)c(Cl)c3)CC2)cc1	2.2%
CN(C(=O)CSc1nc2ccc(NC(=O)c3ccco3)cc2s1)c1ccccc1	-1.3%
CCN1CCN(Cc2nc3cc(NC(=O)c4cc(OC)c(OC)c(OC)c4)ccc3n2CC)CC1	2.2%
CCC(C(=O)Nc1cc(OC)cc(OC)c1)n1nc(-c2ccc(C)c(C)c2)ccc1=O (stereo unspecified)	0.4%
Cc1ccccc1C(=O)N1CC(=O)Nc2ccc(Cl)cc2C1c1ccccc1 (stereo unspecified)	-1.5%
CCOc1ccc(CNS(=O)(=O)c2ccc3c(c2)CC(C)N3C(C)=O)cc1OC (stereo unspecified)	0.1%
CCN(CC)c1ccc(C2C(C(N)=O)=C(C)Nc3nc(SCc4ccccc4)nn32)cc1 (stereo unspecified)	2.2%
COc1ccc(NC(=O)CN2C(=O)CC(c3ccco3)Sc3ccccc32)cc1OC (stereo unspecified)	2.0%
COCCCNC(=O)Cn1c(=O)n(Cc2ccc(C(=O)NCc3ccc(C)cc3)cc2)c(=O)c2ccccc21	1.5%
Brc1cccc(-c2cnn3c(-c4ccccc4)cc(-c4ccccc4)nc23)c1	0.3%
O=C(Cn1c(=O)n(-c2ccccc2)c(=O)c2sc3ccccc3c21)N1CCCC1	0.2%
COc1ccc(Cl)cc1NC(=O)Nc1c[nH]c(=O)[nH]c1=O	0.9%
COc1ccc(-c2cc(C(F)(F)F)n3nc(C(=O)Nc4sc5c(c4C(=O)OC(C)C)CCC(C)C5)cc3n2)cc1 (stereo unspecified)	0.1%
COc1ccccc1N1CCN(S(=O)(=O)c2ccc(F)c(C(=O)Nc3ccc(C)c(F)c3)c2)CC1	-0.1%

Next records follow.
structure	PINK1 expr mod
Cc1ccccc1Cn1c2ccccc2c2cnn(CC(=O)NCc3cccc(Cl)c3)c(=O)c21	15%
CNC(=O)CSc1cn(CC(=O)N2CCCCCC2)c2ccccc12	1.3%
N#Cc1ccc(-c2cccs2)nc1SCc1ccc(Cl)cc1Cl	5.5%
CCOC(=O)Cn1c(=O)n(CC2CCCO2)c2nc(-c3c(F)cccc3Cl)nc(C(N)=O)c21 (stereo unspecified)	2.7%
CCOc1ccc(CC(=O)Nc2c(C(=O)c3ccc(F)cc3)oc3ccc(Cl)cc23)cc1OCC	1.1%
O=S(=O)(c1ccccc1)c1nnn2c1nc(N1CCN(c3ccccc3)CC1)c1cc(Cl)ccc12	-0.4%
CCN(C(=O)C(Cc1ccccc1)NS(=O)(=O)c1cccc2nsnc12)c1ccccc1 (stereo unspecified)	1.6%
Cc1ccc(C)c(CNC(=O)c2sc3ncnc(N(C)C4CCCCC4)c3c2C)c1	1.4%
Cc1sc2c(c1C)c(=O)n(CCc1ccccc1)c(=O)n2Cc1ccc(C(C)(C)C)cc1	0.1%
CCOc1ccccc1CNC(=O)CCn1ccc2cc(S(=O)(=O)N3CCC(C)CC3)ccc21	1.0%

CCN(CC)C(=O)Cn1c(=O)n(CCCCCC(=O)NCc2ccccc2Cl)c(=O)c2sccc21
  PINK1 expr mod: -0.1%
Cc1cc(C)cc(NC(=O)[C@H]2O[C@@H]3OC(C)(C)O[C@@H]3[C@H]3OC(C)(C)O[C@H]32)c1
  PINK1 expr mod: 0.5%
CCOC(=O)c1sc(NC(=O)C2c3ccccc3Oc3ccccc32)c(C(=O)OCC)c1C
  PINK1 expr mod: 0.8%
COc1ccc(Cl)cc1NC(=O)Cn1c(=O)n(Cc2cccs2)c(=O)c2cccnc21
  PINK1 expr mod: 0.6%
CC1CCCCN1CCNC(=O)c1ccc(Cn2c(SCc3ccccc3)nc3cccnc32)cc1 (stereo unspecified)
  PINK1 expr mod: -0.6%
O=C(c1ccc2c(c1)N(Cc1cccc(Cl)c1)C(=O)c1ccccc1S2(=O)=O)N1CCCCCC1
  PINK1 expr mod: 1.5%
CCCN(C(=O)c1cc2c(=O)[nH]c3ccc(C)cc3c2s1)c1ccc(CC)cc1
  PINK1 expr mod: 1.8%
Cc1ccc(CN2CCSc3ccc(C(=O)Nc4ccc(C)cc4)cc32)cc1
  PINK1 expr mod: 3.2%
COc1cccc(C(=O)c2cn(CC(=O)NCc3ccccc3Cl)c3nc(C)ccc3c2=O)c1
  PINK1 expr mod: 11%
CS(=O)(=O)N1CCc2cc(C(=O)Nc3ccc(C(F)(F)F)cc3)ccc21
  PINK1 expr mod: 3.7%
O=C(Nc1ccc(Oc2ccccc2)cc1)C1CCN(S(=O)(=O)c2ccc(Cl)cc2)CC1
  PINK1 expr mod: 2.3%
CNC(=O)c1ccc2nc(Cc3ccccc3)oc2c1
  PINK1 expr mod: 0.2%
Cc1cc2c(cc3c(SCc4cccc(Cl)c4)nnc(C)n32)o1
  PINK1 expr mod: 2.4%
CCc1ccc2[nH]cc(S(=O)(=O)c3ccc(C(C)C)cc3)c(=O)c2c1
  PINK1 expr mod: 3.4%
Cc1ccc(NC(=O)N2CCN(c3nnc(C)c4c(C)n(-c5ccccc5)nc34)CC2)cc1Cl
  PINK1 expr mod: 2.5%

Cc1cc(=O)n(Cc2c(F)cccc2Cl)c2c1c(C)nn2-c1cccc(F)c1
  PINK1 expr mod: 0.4%
COCCNC(=O)c1cc(-c2cccc(Cl)c2)on1
  PINK1 expr mod: -0.4%
COc1cccc(C2C(C(N)=O)=C(C)Nc3ncnn32)c1 (stereo unspecified)
  PINK1 expr mod: 2.6%
O=C(c1ccc2c(c1)N(Cc1ccccc1F)C(=O)c1ccccc1S2=O)N1CCN(c2ccccc2)CC1 (stereo unspecified)
  PINK1 expr mod: -0.2%
Cc1ccc(S(=O)(=O)N2CCN(Cc3nc4ccc(C)cc4o3)CC2)c(C)c1
  PINK1 expr mod: 3.1%
CCOc1ccc(-c2cn3c(n2)sc2cc(C(=O)NCCC4=CCCCC4)ccc23)cc1
  PINK1 expr mod: 0.2%
O=C(CCNS(=O)(=O)c1ccc2c(c1)CCN2C(=O)C1CC1)Nc1ccc(Cl)cc1
  PINK1 expr mod: -5.2%
COc1ccc(C#Cc2cnc(Cl)c3cncnc23)cc1OC
  PINK1 expr mod: 0.3%
COc1ccccc1NC(=O)CCNS(=O)(=O)c1ccc2c(c1)CCCC(=O)N2
  PINK1 expr mod: -1.2%
CCc1ccc(CN(C(=O)c2nc(SC)ncc2Cl)C2CCS(=O)(=O)C2)cc1 (stereo unspecified)
  PINK1 expr mod: -0.1%
O=C(NCc1cccc(Br)c1)c1ccc(-n2cnc3cccnc32)cc1
  PINK1 expr mod: 0.8%
COc1cccc(/C=C/c2nc(C#N)c(NCCN(C)C)o2)c1
  PINK1 expr mod: 0.0%
CSc1ccc(CCNC(=O)C(C)n2nc(C)c3c(C)n(-c4ccccc4)nc3c2=O)cc1 (stereo unspecified)
  PINK1 expr mod: -1.2%
Cc1ccc(NC(=O)C2CCCN(S(=O)(=O)c3cccc4nsnc34)C2)cc1C (stereo unspecified)
  PINK1 expr mod: -0.1%
Cc1ccc(NC(=O)Cn2c(=O)n(CCC(C)C)c(=O)c3cccnc32)cc1C
  PINK1 expr mod: 4.2%

2 neighbouring compounds out of the list so far:
COc1ccc(C#Cc2cnc(Cl)c3cncnc23)cc1OC
  PINK1 expr mod: 0.3%
COc1ccccc1NC(=O)CCNS(=O)(=O)c1ccc2c(c1)CCCC(=O)N2
  PINK1 expr mod: -1.2%

Some of these compounds in order of heavy-atom count, high to low.
O=C(c1ccc2c(c1)N(Cc1ccccc1F)C(=O)c1ccccc1S2=O)N1CCN(c2ccccc2)CC1 (stereo unspecified)
  PINK1 expr mod: -0.2%
O=C(CCNS(=O)(=O)c1ccc2c(c1)CCN2C(=O)C1CC1)Nc1ccc(Cl)cc1
  PINK1 expr mod: -5.2%
Cc1ccc(S(=O)(=O)N2CCN(Cc3nc4ccc(C)cc4o3)CC2)c(C)c1
  PINK1 expr mod: 3.1%

Next part:
Cc1cc(=O)[nH]c2nnc(SCc3ccccc3F)n12
  PINK1 expr mod: 0.1%
CCOC(=O)COc1ccc([N+](=O)[O-])cc1-c1ccnc2cc(-c3ccc(C)cc3)nn12
  PINK1 expr mod: 0.2%
CCCC(=O)Oc1ccc2[nH]c(C(=O)c3cc4ccccc4[nH]3)cc2c1
  PINK1 expr mod: 0.1%
O=C1CCCc2[nH]c(=O)c(-c3nc(-c4cccc([N+](=O)[O-])c4)cs3)cc21
  PINK1 expr mod: 1.7%
COc1cc(OC)c(C2C=C(c3ccc(C)cc3)Nc3c(C(=O)Nc4ccccc4)cnn32)cc1OC (stereo unspecified)
  PINK1 expr mod: -0.7%
Cc1cccc(NC(=O)C2CCN(c3nnc(-n4c(C)ccc4C)s3)CC2)c1C
  PINK1 expr mod: 2.1%
COc1ccc(NC(=O)c2ccc3c(c2)c(C)c(C)n3Cc2ccc(F)cc2)cc1
  PINK1 expr mod: 4.4%
CC(=O)Nc1ccc(NC(=O)c2ccc3c(c2)NC(=O)c2ccccc2S3)cc1
  PINK1 expr mod: 2.3%
COc1cccc(NS(=O)(=O)c2ccc3c(c2)n(C)c(=O)n3C)c1
  PINK1 expr mod: 4.6%
O=C(CCCCCn1c(=O)[nH]c2ccsc2c1=O)NCc1ccccc1
  PINK1 expr mod: 0.4%
COc1ccc(Cl)cc1NC(=O)Cn1ncc2c3ccccc3n(Cc3ccccc3)c2c1=O
  PINK1 expr mod: 0.7%

Individual results from the results shown:
Under PINK1 expr mod, COc1ccc(Cl)cc1NC(=O)Cn1ncc2c3ccccc3n(Cc3ccccc3)c2c1=O shows 0.7%
Under PINK1 expr mod, COc1cc(OC)c(C2C=C(c3ccc(C)cc3)Nc3c(C(=O)Nc4ccccc4)cnn32)cc1OC (stereo unspecified) shows -0.7%
Under PINK1 expr mod, O=C(CCCCCn1c(=O)[nH]c2ccsc2c1=O)NCc1ccccc1 shows 0.4%
